# Mtb MenB inh = M. tuberculosis MenB inhibitors, primary screen, biochemical, absorbance | 1,4-dihydroxy-2-naphthoyl-CoA synthase (Mycobacterium tuberculosis (strain ATCC 25618 / … | MenB enzyme assay, absorbance read-out; some hits fall short of the stated cut | inhibition, %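 (about 12 µg/mL by stock and volumes)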 | 100,000 tested, 0.43% active | AID 540299, 2011;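 active = mean of two replicates above 30%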;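 note: 0% = no compound and 100% = wells with inactive enzyme; the first replicate is given; strong numbers were not always called active; inactives centre near -10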
# PV pol inh = poliovirus RdRp elongation inhibitors, primary screen, biochemical, fluorescence polarization, total intensity | Genome polyprotein (Poliovirus type 1 (strain Mahoney)), P03300 | % elongation, % (compound at 16.7 µg/mL) | poliovirus polymerase elongation; hits give low values | 150,000 tested, 0.66% active; in the data active = % elongation below about 90%; note: some results filed as inactive read as strong as hits
# Target sequence (P03300 1749-2209 limits assumed): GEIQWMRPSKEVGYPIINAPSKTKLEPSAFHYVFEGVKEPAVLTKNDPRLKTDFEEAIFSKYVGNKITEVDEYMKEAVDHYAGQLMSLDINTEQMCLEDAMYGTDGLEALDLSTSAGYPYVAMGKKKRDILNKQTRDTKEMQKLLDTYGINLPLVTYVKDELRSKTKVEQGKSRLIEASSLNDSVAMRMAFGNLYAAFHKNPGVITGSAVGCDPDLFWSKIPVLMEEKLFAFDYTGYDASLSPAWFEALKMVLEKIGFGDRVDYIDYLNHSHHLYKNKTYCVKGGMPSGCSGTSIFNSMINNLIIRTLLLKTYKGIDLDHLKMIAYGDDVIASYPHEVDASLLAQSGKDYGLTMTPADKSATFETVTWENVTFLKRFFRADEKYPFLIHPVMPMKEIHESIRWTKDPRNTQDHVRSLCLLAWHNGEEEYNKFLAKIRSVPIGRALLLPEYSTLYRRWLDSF
# MbtI inh = MbtI salicylate synthase inhibitors, primary screen, biochemical, fluorescence intensity; P9WFX0; 100,000 tested, 0.89% active; inhibition, %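 (about 17 µg/mL by stock and volumes)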; purified MbtI enzyme, fluorescence intensity read-out; AID 493033, 2011;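 active = above 50% in both replicates, above 80% if mildly self-fluorescent; inactive = the rest, strongly fluorescent compounds included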;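 note: 0% = mean of negative and 100% = mean of positive controls; one replicate is shown; some compounds called inactive have numbers as strong as hits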
# Target sequence (P9WFX0 whole entry, looked up): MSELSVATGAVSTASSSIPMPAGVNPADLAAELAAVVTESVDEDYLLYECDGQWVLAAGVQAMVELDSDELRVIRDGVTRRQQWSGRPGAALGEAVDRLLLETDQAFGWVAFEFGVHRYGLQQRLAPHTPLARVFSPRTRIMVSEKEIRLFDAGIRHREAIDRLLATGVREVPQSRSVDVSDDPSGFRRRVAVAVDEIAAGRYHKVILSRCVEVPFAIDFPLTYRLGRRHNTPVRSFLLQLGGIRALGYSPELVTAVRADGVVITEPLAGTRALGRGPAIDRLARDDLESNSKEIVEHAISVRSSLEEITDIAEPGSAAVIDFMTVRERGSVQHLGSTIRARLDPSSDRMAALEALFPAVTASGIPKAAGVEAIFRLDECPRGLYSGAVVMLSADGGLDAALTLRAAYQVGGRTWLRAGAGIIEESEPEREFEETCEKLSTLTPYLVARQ
# PV pol inh intensity = second read-out of PV pol inh, no call of its own (marks repeat the call); % elongation; measured here: total intensity read-out; formula for this scale not given here;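 total fluorescence in place of polarization; lower means less elongation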
# * marks the source's active call; other numbers are inactive results; i = inactive; . = not tested or not shown; & = joins results of further samples. Random draw from the library; 2% or so of the library scored in one or more.
SMILES,Mtb MenB inh,PV pol inh,PV pol inh intensity,MbtI inh
Cc1cc(C)c2c(n1)sc1c(=O)n(C(C)C(=O)NC(N)=O)cnc12 (stereo unspecified),-8,99,107,4
CCOC(=O)NC(=S)Nc1ccc(N2CC(C)OC(C)C2)cc1 (stereo unspecified),-8,104,101,-3
Cc1c(Br)sc2sc(Br)c(C)c12,10,102,99,6
COC(=O)c1ccc(-c2nc3ccc(C)cc3o2)cc1,-34,105,100,i
CCSc1nnc(-c2ccccc2)c(-c2ccccc2)n1,.,101,107,-6
Cc1ccc(-c2csc(/C=C3/NC(=O)CS3)n2)cc1,.,105,109,-11
Nc1ccc2nc(C3CCCCC3)[nH]c2c1,-1,97,98,.
O=C(NCCc1ccccc1)c1ccc(C(F)(F)F)cc1,-19,105,94,.
C=CCN(CC=C)S(=O)(=O)c1ccc(C(=O)Nc2nnc(-c3ccc(OC)cc3OC)o2)cc1,-16,101,101,2
COCC(=O)Nc1ccc(-c2cn3cccnc3n2)cc1,-10,102,103,105
COC(=O)C1=C(O)/C(=C\c2ccccc2)N=C1C,-177,107,101,27
CCOc1cccc(CN(C(C)=O)c2ccc3[nH]c(=O)[nH]c3c2)c1OCc1ccccc1,-15,98,95,.
O=C1CCCCCCCCCCC1CN1CCOCC1 (stereo unspecified),-2,109,107,-4
Nc1nc2ccccc2n1C(=O)Cc1ccccc1,27,100,105,3
Nc1[nH]c(=O)ncc1F,-4,98,95,-16
NC(=O)c1cnccn1,-4&-8,98&102,103&101,-6&-11
Cc1ccccc1N=C(N)N=C(N)N,-6,102,109,-6
NC(=O)CSC1=Nc2ccccc2C2=NC(c3ccccc3)C(=O)N12 (stereo unspecified),-1,98,102,91
C=CCNC(=S)Nc1ccc(C)cc1OC(F)F,0,100,100,-3
CC1CN(Cn2nc(-c3ccc4c(c3)OCO4)oc2=S)CC(C)O1 (stereo unspecified),-30,102,90,17
COCCN1CN(Cc2ccco2)CC2=C1CC(c1ccccc1)CC2=O (stereo unspecified),-18,99,102,19
CCCCN(C)S(=O)(=O)c1ccc2[nH]c(=O)ccc2c1,-2,105,100,-7
COc1ccccc1CN1C(=O)NC(CCc2ccccc2)C1=O (stereo unspecified),-7,103,102,-15
Cc1onc(-c2ccccc2Cl)c1C(=O)NN,6,101,96,5
Cc1onc(-c2ccccc2Cl)c1C(=O)Nc1nnc(SCC(=O)Nc2ccccc2F)s1,-27,103,102,-6
Cc1nc(-c2ccncc2)nc(NCCNc2cc(C(F)(F)F)ccn2)c1Cl,4,100,105,-6
CC1CCN(C2=NS(=O)(=O)c3ccccc32)CC1,-4,102,101,-1
O=C1CC(c2ccccc2)CC2=C1C=Nc1ccccc1N2 (stereo unspecified),-20,103,103,-13
CCOC(=O)/C=C1\NC(=O)CS1,-18,111,110,2
CCCCCCCC/C=C\C/C=C\C/C=C\CCCC(=O)O,5,102&102,107&105,-13

# An excerpt from above, limited to MbtI inh and Mtb MenB inh:
Molecule	MbtI inh	Mtb MenB inh
Cc1nc(-c2ccncc2)nc(NCCNc2cc(C(F)(F)F)ccn2)c1Cl	-6	4
CC1CCN(C2=NS(=O)(=O)c3ccccc32)CC1	-1	-4
O=C1CC(c2ccccc2)CC2=C1C=Nc1ccccc1N2 (stereo unspecified)	-13	-20

# Additional results follow.
SMILES,Mtb MenB inh,PV pol inh,PV pol inh intensity,MbtI inh
CC1=NN(C)C(=O)C1Cc1c(Cl)cccc1Cl (stereo unspecified),-25,103,92,-4
CC(C)S(=O)(=O)c1cnc(N2CCOCC2)nc1N,8,110,111,-10
Cn1c(=O)n(N)c(=O)c2c(-c3ccc(F)cc3F)c3c(nc21)-c1ccccc1C3=O,4,101,106,-6
O=C(Cc1ccccc1OC(=O)c1ccccc1)c1ccccc1,.,101,96,7
COCCn1c(-c2ccncc2)nn(CO)c1=S,-28,101,96,29
Oc1ccccc1-c1nc(N2CCCC2)c2ccccc2n1,-4,97,103,-2
O=C(COc1ccc(Cl)cc1)Oc1ccccc1,-24,90,96,.
COC(=O)c1cc(N)c(Cl)s1,-17,96,122,33
CC(C)(C)C(=O)OC[C@H]1O[C@@H](n2cnc3c(N)ncnc32)C[C@@H]1OC(=O)C(C)(C)C,-2,109,113,-16
N#Cc1ccc(CC(C#N)c2ccccc2)cc1 (stereo unspecified),-22,99,109,-11
Cc1cc2oc(=O)cc(CN3CCN(C(=O)C4CCCO4)CC3)c2cc1Cl (stereo unspecified),-6,107,106,-1
N#Cc1c(-n2cccc2C#N)sc2c1CCCC2,-43,101,101,-90
CCOC(=O)c1c(C)n(-c2ccccc2)c2ccc(OC(=O)c3ccccc3NC(=O)CC)cc12,-19,104,103,16
CCN(CC)S(=O)(=O)c1ncn[nH]1,-4,97,103,.
O=C(NCc1cn2cc(Cl)ccc2n1)c1ccccc1,0,101,103,12
O=C(Cc1ccc(Cl)c(Cl)c1)N1CCC2(CC1)Nc1ccccc1S(=O)(=O)N2,15,100,103,-22
Cc1onc(-c2c(F)cccc2Cl)c1C(=O)N[C@@H]1C(=O)N2C(C(=O)O)C(C)(C)S[C@H]12 (stereo partly specified),-2,98,97,-3
CC1=CCC2COC(c3ccccn3)C1C2 (stereo unspecified),-7,97,103,-10
CN(C)c1ccc(-n2cccc2)cc1,.,105,110,-21
Cc1c(NC(=O)c2ccc(Br)o2)cccc1-c1nc2cccnc2s1,12,99,103,-31
Cn1c(SCc2nc3ccc(Cl)cc3n2CCO)nnc1C(F)(F)F,10,97,98,4
O=C(CSc1nncc2ccccc12)c1ccc(Cl)cc1Cl,.,103,108,-7
O=c1c(Cl)c(NC2CC2)cnn1-c1ccccc1,-38,.,.,14
O=C(/C=C/c1cn(-c2ccccc2)nc1-c1cccnc1)N1CCCC1,.,105,109,-11
O=C(Nc1ccccc1)C(=S)N1CCCC1,-45,100,101,-7
CCOc1ccc2nc(N(Cc3ccccc3)C(=O)c3ccco3)sc2c1,-12,103,102,17
C#CCN1C(=O)C2C(C(=O)NC)C3C=CC2(O3)C1C(=O)NCc1ccc(OC)cc1 (stereo unspecified),54*,101,101,-1
O=C(Cc1cn2ccsc2n1)N/N=C/c1cn(-c2ccccc2)nc1-c1cccs1,-36,104,110,101
Cc1ccc(Oc2cc(C#N)c(C#N)cc2-n2nnc3ccccc32)cc1C,-5,102,106,.
O=C(Oc1ccccc1)c1ccc2nccnc2c1,-35,102,102,-8

# Record cards, from the list above. Order of screens: Mtb MenB inh | PV pol inh | PV pol inh intensity | MbtI inh
# `Cc1c(NC(=O)c2ccc(Br)o2)cccc1-c1nc2cccnc2s1` reads 12 | 99 | 103 | -31
# `Cc1onc(-c2c(F)cccc2Cl)c1C(=O)N[C@@H]1C(=O)N2C(C(=O)O)C(C)(C)S[C@H]12` (stereo partly specified) reads -2 | 98 | 97 | -3

# Going on with the list.
SMILES,Mtb MenB inh,PV pol inh,PV pol inh intensity,MbtI inh
CCn1cc(C(=O)N(C)Cc2cccc(Cl)c2)c(=O)c2ccc(C)nc21,3,100,100,-3
O=C(/C=C/c1ccccc1)Nc1nc2c(s1)CCCC2,.,103,105,-4
Cc1ccc(N(C(C)C(=O)Nc2ccc(S(=O)(=O)N3CCOCC3)cc2)S(C)(=O)=O)cc1C (stereo unspecified),0,102,101,-10
COCc1cc(=O)[nH]c(/N=C(\N)Nc2ccc(C)cc2)n1,9,103,101,7
Cn1nc(C(=O)Nc2ccccc2C(=O)NC2CCCC2)ccc1=O,0,100,106,-9
c1ccc2c(c1)Oc1ccccc1O2,-13,102,100,-2
Cn1c(N)c(N2CCNCC2)c(=O)n(C)c1=O,5,104,105,0
CCN(CC)S(=O)(=O)c1cc(C(=O)N2CCc3ccccc32)ccc1Cl,.,103,108,-5
CCC(=O)Nc1ccc2nn(-c3ccc(CC)cc3)nc2c1,-15,101,99,-217
COC(=O)/C(C#N)=C/c1cccc(O)c1,8,98,103,31
CCN(CC)S(=O)(=O)c1ccc(C(=O)OC(C)C(=O)NC2CCCCC2)cc1 (stereo unspecified),-24,108,97,-8
CCOC(=O)C1=C(CSc2nnc(Cc3ccc(OC)cc3)n2N)NC(=O)NC1C (stereo unspecified),-2,105,110,-1
O=C(CCC(=O)c1cccs1)OCc1nnc(-c2ccccc2)o1,7,103,101,2
COc1ccc(Nc2ccccc2NC(=O)c2cc3ccccc3o2)cc1,-16,110,109,-12
Cc1cc(SCC(N)=O)nc(=O)[nH]1,-6,107,114,17
Cc1cc(S(=O)(=O)/N=C/N(C)C)c(C)cc1Cl,1,103,101,-1
CN(C)CC(=O)Nc1ccc(S(N)(=O)=O)cc1,-24,114,111,-7
OCCNC(=S)NC1CC2C=CC1C2 (stereo unspecified),7,101,100,4
Cc1cc(=O)n2nc(N(C)CC(=O)O)sc2n1,3,94,95,61
CN(C)C(=O)CSc1nc2ccc(C(=O)c3ccccc3)cc2[nH]1,-8,101,100,24
CN(C)S(=O)(=O)N(Cc1ccc(Br)cc1)c1ccccc1,-8,101,99,-2
Cc1cc(C)nc(N/N=C/C2=C(O)CC(C)(C)CC2=O)n1,-21,105,111,18
CC1=CC(c2ccoc2)c2c(oc(N)c(C#N)c2=O)S1 (stereo unspecified),13,97,92,.
CCC(Nc1ccccc1)C(=O)N/N=C/c1ccccc1O (stereo unspecified),-42,103,101,-11
Cn1c(N)c(NC2CC(C)(C)NC(C)(C)C2)c(=O)[nH]c1=O,-7,97,117,-3
CC(Oc1ccccc1)C(=O)Nc1c[nH]c(=O)[nH]c1=O (stereo unspecified),-37,103,102,-3
Cn1c(=S)oc2ccccc21,13,100,100,26
c1ccc2[nH]c(CCn3c4ccccc4c4ccccc43)nc2c1,-20,98,96,.
O=C(O)CCC1C(=O)NC(=O)NC1=O,-25,101,101,-5
Cc1ccc(NC(=O)Cc2nc(COC(=O)C3CC(=O)N(Cc4ccco4)C3)cs2)cc1 (stereo unspecified),-3,106,102,-2
COC(=O)C(C)Oc1ccc(N2C(=O)c3ccccc3C2=O)cc1 (stereo unspecified),-17,104,102,-8
CCOC(=O)C(C)Oc1ccc2c(C)cc(=O)oc2c1 (stereo unspecified),-2,103,100,117
CCCCNc1ccc(C(F)(F)F)cc1N,0,103,110,-6
CC(C)Oc1cccc(C(=O)N2CCCCC2)c1,2,101,103,-22
Cc1sc2ncn3nc(-c4ccc5c(c4)OCO5)nc3c2c1C,-64,106,100,6
Cc1ccc(S(=O)(=O)Nc2c(C)n(C)n(-c3ccccc3)c2=O)cc1,-31,103,103,7
COc1cccc(C(=O)CN2C3=NCCCN3c3ccccc32)c1,1,103,106,-3
Cc1ccsc1C(=O)OCC1CCCO1 (stereo unspecified),.,100,101,1
O=S(=O)(NCCc1ccccc1)c1ccc(F)cc1,-10,103,102,-9
O=C(Nc1ccccc1)Nc1cc(-c2ccccc2)[nH]n1,-6,101,97,5
O=C(O)c1cnc(N2CCCC2)nc1,-2,105,107,8
O=C(c1ccc(N2C(=O)c3ccccc3C2=O)cc1)N1CCN(S(=O)(=O)c2ccccc2F)CC1,0,102,107,3
O=C(NCCc1ccccc1)c1nnc(C(Nc2ccccc2)c2ccc(Cl)cc2)o1 (stereo unspecified),0,100,104,-5
Cc1ccc(NC(=O)CSC2=NC(N)=C(C#N)C3(CCCCC3)C2C(N)=O)cc1 (stereo unspecified),-36,102,112,-6
CCn1c(SC)nnc1C1CCCN(C(=O)Cc2cccnc2)C1 (stereo unspecified),-32,107,101,-6
CC(C)(C)c1cc(N)ncn1,1,99,103,-2
Cc1ccc(SCC(=O)c2ccc[nH]2)cc1C,-24,.,.,23
Cc1ccc(NC(=O)CSc2ccnc(=O)[nH]2)cc1,5,101,109,21
CCS(=O)(=O)N1CCN(Cc2nc3sc4c(c3c(=O)[nH]2)CCC(C(C)(C)C)C4)CC1 (stereo unspecified),-49,107,100,-1
Cc1cc(SC(=O)N/C=C/c2ccco2)c(C)cc1Cl,-12,117,130,22
CCN(CC)c1ccc(/C=N/N(CCC#N)C2=NS(=O)(=O)c3ccccc32)cc1,8,73,195,-1
O=C(Oc1nnc(SCCS(=O)(=O)c2ccc(F)cc2)n1C1CC1)c1cccs1,22,99,104,-3
CC(=O)Nc1cc(NC(C)=O)cc(C(=O)OCC(=O)N2CC(C)OC(C)C2)c1 (stereo unspecified),-21,103,103,12
N#CCCN(C(=O)c1cccs1)c1ccccc1F,.,102,101,2
O=C(CCC1CCCC1)N1CCN(C2CCCCC2)CC1,-2,102,103,-10
NNC(=O)/C=C/c1ccc(-c2ccc(F)cc2)o1,-28,98,89,-1

# Laid out differently: results already given
mol | Mtb MenB inh | PV pol inh | PV pol inh intensity | MbtI inh
COCCN1CN(Cc2ccco2)CC2=C1CC(c1ccccc1)CC2=O (stereo unspecified) | -18 | 99 | 102 | 19
Cn1c(SCc2nc3ccc(Cl)cc3n2CCO)nnc1C(F)(F)F | 10 | 97 | 98 | 4
CCOC(=O)C1=C(CSc2nnc(Cc3ccc(OC)cc3)n2N)NC(=O)NC1C (stereo unspecified) | -2 | 105 | 110 | -1
Cc1ccc(-c2csc(/C=C3/NC(=O)CS3)n2)cc1 | . | 105 | 109 | -11
Cc1onc(-c2ccccc2Cl)c1C(=O)NN | 6 | 101 | 96 | 5
Cc1ccc(N(C(C)C(=O)Nc2ccc(S(=O)(=O)N3CCOCC3)cc2)S(C)(=O)=O)cc1C (stereo unspecified) | 0 | 102 | 101 | -10

# Screening data (PubChem BioAssay)
